RanGTP-Impb inh = disruptors of Ran-importin-beta complex formation – biochemical, FRET, CFP-Ran, YFP-importin-beta, homogeneous, primary screen; cell-free CFP-Ran/YFP-importin-beta FRET ratio; inhibition, % (no concentration beside the values); 300,000 compounds, 1.1% hits; AID 2216;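 active = most replicates above 15%; inconclusive = exactly half above 15%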;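 also: 0% = DMSO wells and 100% = Ran loaded with GDP instead of GTP; wells of about 40 µL received 100 nL stock; the first replicate is given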
ALR inh = blocks human ALR sulfhydryl oxidase activity | purified ALR, DTT oxidation, H2O2 HRP-luminol luminescence | inhibition, % (no concentration beside the values) | 290,000 compounds, 3.8% hits;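 active = mean and each replicate at 75% or more; inconclusive = only one of the two met; inactive = neither met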;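 also: stock transfer was 7.5 nL into about 7.5 µL; 0% = neutral wells and 100% = wells with inactivated enzyme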
LANA-H2A inh = blocks KSHV LANA binding to histone H2A/H2B; inhibition, % (concentration not given with the values); Q9QR71; cell-free LANA-H2A/H2B peptide, fluorescence polarization; 320,000 compounds, 0.6% hits; in the data active = inhibition mostly above about 10%, no sharp cut-off; inactive = mostly below about 6.7%;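 also: stock transfer was 7.5 nL into about 10 µL; 0% = median of vehicle wells and 100% = median of positive control wells; one replicate is shown; the record names a cut of 25% in any replicate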
Target sequence (Q9QR71 whole entry, looked up): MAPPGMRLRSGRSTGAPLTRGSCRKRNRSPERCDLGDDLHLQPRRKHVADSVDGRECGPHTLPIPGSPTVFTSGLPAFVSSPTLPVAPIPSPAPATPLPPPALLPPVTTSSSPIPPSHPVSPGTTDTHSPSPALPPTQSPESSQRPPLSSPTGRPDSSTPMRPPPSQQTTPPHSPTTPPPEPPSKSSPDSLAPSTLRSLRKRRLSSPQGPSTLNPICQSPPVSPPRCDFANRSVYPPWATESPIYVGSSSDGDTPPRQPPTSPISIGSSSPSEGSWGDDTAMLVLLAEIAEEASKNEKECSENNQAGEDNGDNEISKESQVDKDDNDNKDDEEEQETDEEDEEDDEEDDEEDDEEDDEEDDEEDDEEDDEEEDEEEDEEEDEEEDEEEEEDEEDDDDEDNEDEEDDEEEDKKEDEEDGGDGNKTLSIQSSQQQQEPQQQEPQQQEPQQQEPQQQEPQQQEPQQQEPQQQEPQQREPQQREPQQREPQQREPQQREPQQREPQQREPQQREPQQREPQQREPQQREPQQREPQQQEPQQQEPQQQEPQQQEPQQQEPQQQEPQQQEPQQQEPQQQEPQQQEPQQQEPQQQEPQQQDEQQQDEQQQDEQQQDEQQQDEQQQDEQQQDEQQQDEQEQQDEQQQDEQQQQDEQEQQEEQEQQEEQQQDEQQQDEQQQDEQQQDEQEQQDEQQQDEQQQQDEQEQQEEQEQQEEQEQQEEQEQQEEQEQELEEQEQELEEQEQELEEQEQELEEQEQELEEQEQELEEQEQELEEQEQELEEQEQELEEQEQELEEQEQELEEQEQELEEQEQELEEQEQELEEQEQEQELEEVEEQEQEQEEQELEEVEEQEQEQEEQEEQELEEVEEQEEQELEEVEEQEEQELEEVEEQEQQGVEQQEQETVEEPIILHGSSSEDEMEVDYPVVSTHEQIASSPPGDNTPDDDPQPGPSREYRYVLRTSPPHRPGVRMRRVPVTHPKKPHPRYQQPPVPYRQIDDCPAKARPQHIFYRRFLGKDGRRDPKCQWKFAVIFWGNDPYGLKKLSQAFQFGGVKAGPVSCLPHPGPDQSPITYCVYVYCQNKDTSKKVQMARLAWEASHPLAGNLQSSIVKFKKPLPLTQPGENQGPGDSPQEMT
Calb FLC = C. albicans growth modulation with fluconazole; C. albicans CaCi-2 (fluconazole-resistant clinical isolate) + fluconazole, Alamar Blue growth, 48 h; 300,000 compounds, 0.57% hits; growth inhibition, % (test concentration not listed);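 active = most replicates above 75%; inconclusive = exactly half above 75%; inactive = most below 75%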;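 also: all wells also contain fluconazole at 8 µg/ml as a sub-toxic cotreatment; 0% = median of DMSO wells and 100% = median of geldanamycin control wells; wells of about 8 µL received 7.5 nL stock; the first replicate is given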
HNF4A DNA FP = change in binding of human HNF4 alpha to DNA; P41235; HNF4a-FITC DNA binding, fluorescence polarization, 1 h; activity change, % at 10 µM; 360,000 compounds, 0.3% hits; in the data active = activity change above about 30%, passing the limit was not always enough;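 also: controls were the assay level and a saturating level of protein; the project sought stronger binding though the title names inhibitors; some compounds called inactive have numbers as strong as hits; positive values seem to mean higher polarization but the record does not say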
Vif TR-FRET = inhibitors of Vif binding to APOBEC3G peptide, primary screen, biochemical, TR-FRET, GST-Vif 1-94, biotin-A3G peptide, dose response retest (AID 1117319) | TR-FRET GST-Vif / biotin-A3G peptide binding; higher % means a stronger effect; test concentration not given here; strong numbers were not always called active | 260,000 compounds, 0.57% hits | one-dose inhibition, %; IC50 in µM for titrated hits;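 active = above the screen mean plus three standard deviations and confirmed in dose response; inconclusive = results disagree or hit not tested in dose response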;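 also: Vif residues 1-94 fused to GST binding biotinylated APOBEC3G peptide 110-148; 0% = full assay without inhibitor and 100% = GST in place of GST-Vif; retest series ran down from 100 µM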
B2AR ag = human beta-2 adrenergic receptor agonism by FAP; AID 504454; Am2.2-beta2AR cells, FAP receptor internalization, flow cytometry; reference of the scale not given here; response, % (no concentration beside the values); P07550; 340,000 compounds, 0.43% hits;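 active = response above a set limit, near 3 SD of response in nonfluorescent compounds, cut at about 42% in these data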;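 also: stock transfer was 100 nL into about 11 µL; a reference agonist was the positive control; negative values mostly stem from fluorescent compounds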
The depositor's hits bear a star; ? = inconclusive; / = not tested or not shown; & = joins results of further samples.

SMILES	RanGTP-Impb inh	ALR inh	LANA-H2A inh	Calb FLC	HNF4A DNA FP	Vif TR-FRET	B2AR ag
Cc1cc(NC(=O)c2ccccc2F)ncc1NC(=O)c1cccs1	4.8	-3	5.3	4	2.5	16%	-16
CC(=O)Nc1ccc(Oc2ccc(NC(C)=O)c(NC(C)=O)c2)cc1	?	-5	-3.3	1	-0.6	-10%	-4
CCCn1nc(CC(=O)O)c2ccccc2c1=O	-3.4	-3	-2.0	33	-6.3	-1%	3
COc1cccc(NC(=O)NCc2ccccn2)c1	0.8	-12	1.6	-9	6.5	11%	7
CC1OC2C(OC1C)N(S(C)(=O)=O)CCN2S(C)(=O)=O (stereo not given)	4.1	-1	-0.2	-20	0.7	-2%	2
CCCCOC(=O)c1ccc(NC(=S)NC(=O)c2c(Br)c(C)nn2C)cc1	-0.1	7	0.2	-4	-1.8	?	-4
COc1ccc(NC(=O)CSCC(=O)NCc2ccco2)cc1	-1.8	55	5.2	2	-1.6	2%	-3
COc1ccc(C(=O)OCC(=O)NC(=O)NC(C)C)cc1OC	-0.7	1	9.6	26	2.2	3%	11
CCOc1ccc(N(CC(=O)NCc2ccco2)S(=O)(=O)c2ccc(OC)c(OC)c2)cc1	0.9	-1	-0.7	-10	-2.5	9%	10
CCC(=O)N(C)CCc1cc2c(c(OC)c1/C=N/NC(=O)c1ccc(Br)cc1)OCO2	-0.7	-27	-1.9	-6	2.0	8%	-3
O=C(NC(C(=O)N/N=C/c1ccccn1)c1n[nH]c(=O)c2ccccc12)c1ccccc1 (stereo not given)	-0.4	0	-2.8	-5	0.0	-1%	-2
COc1ccc2cc3cc(C(=O)NCCN4CCc5ccccc5C4)sc3nc2c1	2.0	-5	-1.5	40	-2.3	-3%	-9
O=C(c1ccc(NS(=O)(=O)c2ccc(Cl)cc2)cc1)N1CCOCC1	-1.4	0	0.8	17	2.3	-3%	1
CC(=O)Nc1cccc(C(=O)Nc2nc(C)cs2)c1	-2.4	/	-4.5	12	-1.2	/	-3
COc1ccc(NC(=O)CCC(=O)Nc2nnc(C(C)C)s2)cc1Cl	3.7	-1	0.9	-2	0.8	4%	7
C=CC[C@@H](CC(=O)N[C@H](CO)Cc1ccccc1)C(=O)NCCOC(=O)[C@@H](CC=C)CC(=O)OC(C)(C)C	/	28	6.6	/	0.9	/	1
COc1ccccc1NC(=O)C1CCN(C(=O)c2ccc(C(C)(C)C)cc2)CC1	2.0	-3	5.5	31	1.3	/	5
CCCCNC(=O)C(C#N)c1nc2ccccc2nc1N1CCCC1 (stereo not given)	34*	/	/	0	/	27%	/
FC(F)(F)c1cccc(Cc2noc(CN3C[C@@H]4CCC[C@H]3C4)n2)c1	-0.6	-19	3.0	-4	-5.7	/	-2
CCCCCCCC(=O)NNC(=O)c1c(O)c2ccccc2n(CCC)c1=O	-4.1	-9	1.7	-3	-0.4	?	-3
O=C(N/N=C/c1ccc(N2CCCCC2)o1)c1ccccc1	/	-45	-18	/	1.5	?	10
CC(OC(=O)C1CC(=O)N(Cc2ccco2)C1)C(=O)Nc1ccc(F)cc1Cl (stereo not given)	/	/	-3.0	/	1.9	2%	3
O=C(CN1CCN(c2nc(-c3ccccc3)cs2)CC1)Nc1ccc2c(c1)OCO2	-4.4	/	1.2	-20	-0.1	74%	3
O=C(COC(=O)c1ccc(N2CCCC2=O)cc1)c1ccccc1	2.9	-2	-3.2	-3	3.2	/	2
CCn1nnnc1NC(=O)c1ccc2ccccc2c1	2.7	-6	-2.2	-1	1.4	-1%	-6
CCC(=O)N1c2ccc(S(=O)(=O)CCC(=O)NCCC3=CCCCC3)cc2CC1C (stereo not given)	1.0	-4	5.4	-1	-3.4	-1%	-5
CCC1(C(=O)c2ccccc2)C(c2ccc([N+](=O)[O-])cc2)C1(C(=O)OC)C(=O)OC (stereo not given)	-2.3	/	-1.2	-2	-1.9	/	-2
COc1ccc(NS(=O)(=O)c2cccc3ccccc23)cc1	2.2	0	-0.6	0	1.4	/	7
CCCN(CCC)CCCNC(=O)c1cn(-c2ccc(OC)cc2)c(=O)c2ccccc12	1.8	-10	4.8	-7	-0.6	3%	-2
CCN1C(=O)CS/C1=N\S(=O)(=O)c1ccccc1	-1.3	-2	-2.7	0	-4.1	?	4

Laid out differently: 4 of the compounds above
| compound | RanGTP-Impb inh | ALR inh | LANA-H2A inh | Calb FLC | HNF4A DNA FP | Vif TR-FRET | B2AR ag |
| --- | --- | --- | --- | --- | --- | --- | --- |
| CC(=O)Nc1cccc(C(=O)Nc2nc(C)cs2)c1 | -2.4 | / | -4.5 | 12 | -1.2 | / | -3 |
| COc1ccc(NC(=O)CCC(=O)Nc2nnc(C(C)C)s2)cc1Cl | 3.7 | -1 | 0.9 | -2 | 0.8 | 4% | 7 |
| C=CC[C@@H](CC(=O)N[C@H](CO)Cc1ccccc1)C(=O)NCCOC(=O)[C@@H](CC=C)CC(=O)OC(C)(C)C | / | 28 | 6.6 | / | 0.9 | / | 1 |
| COc1ccccc1NC(=O)C1CCN(C(=O)c2ccc(C(C)(C)C)cc2)CC1 | 2.0 | -3 | 5.5 | 31 | 1.3 | / | 5 |

Next results
SMILES	RanGTP-Impb inh	ALR inh	LANA-H2A inh	Calb FLC	HNF4A DNA FP	Vif TR-FRET	B2AR ag
Cc1ccccc1OCC(O)CN1CCN(C)CC1 (stereo not given)	1.6	-1	-8.8	-1	-2.5	-6%	3
CC(C)C[C@@H](CO)N1CCN(C)CCC1=O	-1.8	1	-2.0	-10	0.6	/	3
C=C1C(C(=O)N2CCN(C)CC2)C1C(=O)N1CCN(C)CC1 (stereo not given)	4.6	-1	-2.0	29	0.3	-4%	-3
O=C(N/N=C/c1ccco1)c1cc(-c2ccc(Cl)s2)[nH]n1	0.8	3	0.7	10	10	3%	-3
Cc1cccn2c(=O)c(C=Nc3ccc(Cl)cc3)c(NCCO)nc12	-3.4	-4	-14	-8	-2.1	?	-1
O=[N+]([O-])c1ccc(S(=O)(=O)NN=Cc2ccc(Cl)c(Cl)c2)cc1	/	/	/	/	-2.5	1%	-1
Cc1csc(NC(=O)c2oc3ccccc3c2C)n1	5.7	5	10	13	-3.1	-3%	0
Cc1ccccc1OCCSc1nc(N(C)C)nc(N(C)C)n1	-8.7	-1	0.5	4	0.1	4%	-3
CCCCCCCN1CCC(=O)N([C@H](CO)Cc2ccccc2)CC1	?	/	-1.0	-9	-0.6	/	1
Cc1ccccc1-n1nc2c(c1NC(=O)c1cc3ccccc3oc1=O)CS(=O)C2 (stereo not given)	3.5	-14	2.9	6	2.5	?	-15
N#Cc1sc2nc(C3CC3)cc(-c3ccc(Cl)cc3)c2c1N	-1.5	-3	-1.2	?	0.2	6%	17
CCC1(C)Cc2c(sc3nc(SC)nc(NCCN(C)C)c23)CO1 (stereo not given)	-2.4	-25	-10	-5	-0.9	2%	2
Nc1cccnc1Sc1ccccc1	5.0	-14	4.1	4	1.4	/	0
CN(CC(=O)Nc1ccc2c(c1)OCO2)S(=O)(=O)c1ccc2c(c1)CCC(=O)N2	1.7	-7	-1.9	12	1.7	6%	2
Cc1nc2ccccc2nc1-c1ccc([N+](=O)[O-])cc1	/	/	/	/	2.5	4%	-2
O=c1[nH]snc1N1CCOCC1	/	-1	3.4	13	-4.2	/	-6
Cc1ccc(C(=O)NCC(=O)OCC(=O)NC(C)C2CC3CCC2C3)cc1 (stereo not given)	/	/	/	/	2.4	4%	4
O=C(CSc1nc(O)c(C2CCCCC2)c(=O)[nH]1)Nc1ccc(Cl)cc1	-0.6	/	3.9	1	2.3	-9%&3%	3
COc1ccc(-n2ccn(CC(=O)Nc3ccc(OC)cc3OC)c(=O)c2=O)cc1	0.7	-3	1.0	-2	0.6	0%	3
CSc1ccccc1NC(=O)CN(C)C(=O)COc1cccc2cccnc12	/	-83	-2.5	/	-5.7	/	18
CCC(Sc1nc(C)cc(C)n1)C(=O)Nc1ccc(Cl)cn1 (stereo not given)	2.5	-3	4.0	-9	0.2	-9%	-18
O=C(C1=C(O)C(=O)N(CC2CCCO2)C1c1ccc(Cl)cc1Cl)c1ccco1 (stereo not given)	3.5	7	-1.9	7	1.0	/	-5
CCCCn1c(N)c(N(CCOC)C(=O)CSc2ccccc2C)c(=O)[nH]c1=O	-0.9	3	5.6	7	-0.3	1%	2
Cc1ccc(NC(=O)Cn2cnc3c(oc4nc5c(cc43)COC(C)(C)C5)c2=O)cc1	8.1	-2	1.0	-12	0.1	-8%	-11
CC12CC3CC(C1)CC(C(=O)NNC(=O)c1ccncc1)(C3)C2	/	-1	1.8	/	-4.9	-2%	-2
CC(C)(C)n1ncc2c(=O)n(Cc3cccc(Cl)c3)cnc21	1.1	-26	-2.6	4	0.9	10%	5
COc1ccc(NC(=O)CSc2nc3ccccc3c3nc4ccccc4n23)cc1	/	2	/	/	5.0	-6%	-4
CCCS(=O)(=O)N1CCC(C(=O)NCCc2ccc(OC)c(OC)c2)CC1	1.3	-5	1.2	-2	-1.0	12%	4
CC1CCN(S(=O)(=O)N2CCN(C(=O)c3ccc4c(c3)OCO4)CC2)CC1	?	33	1.4	-21	-0.3	/	4
CN(Cc1nccn1C)C(=O)c1cc(COc2cccc(C(F)(F)F)c2)on1	4.5	-1	0.9	-3	1.4	/	8
Cc1cc(NC(=O)CSCc2nc(-c3cccc(Cl)c3)oc2C)no1	-5.0	97*	-1.4	7	0.9	-4%	3
O=C(NCc1nnc(SCC(=O)N2CCCc3ccccc32)n1-c1ccccc1)c1cccc2ccccc12	2.3	-4	-4.0	11	-0.7	/	10
Cc1cccc(/C=C2/S/C(=N/N=C3\CC4CCC3(C)C4(C)C)NC2=O)c1 (stereo not given)	-3.6	2	-3.7	-7	2.9	4%	10
c1ccc(-c2nnc(-c3ccncc3)nc2-c2ccccc2)cc1	-1.6	-4	-3.2	57	1.5	4%	-6
NC(=O)C1CCN(C(=O)COc2ccc3c(c2)oc(=O)c2ccccc23)CC1	-0.4	-4	-1.1	-7	0.1	/	-19
COc1ccc(N2CCN(C(=O)c3ccccc3NC(=O)c3ccccc3)CC2)cc1	-2.4	43	-0.4	-1	0.4	/	-3
CCn1c(COc2cccc3ccccc23)nnc1SCC(N)=O	-1.5	-4	2.3	12	1.2	-1%	7
CCN1CCN(CCNC(=O)c2ccc(/C=C3\Sc4ccccc4N(Cc4ccccc4F)C3=O)cc2)CC1	10	9	4.9	44	-5.6	-5%	55*
O=C(c1noc2c1CCCC2)N1CCCCC1	-1.7	4	3.9	-14	-0.7	15%	-4
COc1cc(S(=O)(=O)N2CCOCC2)cc(C(=O)OCC(=O)NCc2ccco2)c1OC	/	-2	1.1	/	1.4	?	-1
O=c1c(-c2ccccc2)c(O)c2cccc3c2n1CCC3	-0.6	-12	20*	-4	0.8	-4%	5
O=S(=O)(c1ccccc1)N1CCN(CCc2ccccc2)CC1	3.9	0	-13	5	0.1	/	0
O=C(Nc1ccccn1)c1ccc2c(c1)S(=O)(=O)c1ccccc1C2=O	4.8	-15	-5.9	-17	0.9	-3%	-12
CCOC(=O)C1=C(N)OC2=C(C(=O)CCC2)C1c1ccco1 (stereo not given)	-1.3	2	-5.8	3	-1.9	20%	-1

Shown with bars between the fields: entries from further up
Molecule | RanGTP-Impb inh | ALR inh | LANA-H2A inh | Calb FLC | HNF4A DNA FP | Vif TR-FRET | B2AR ag
CCOC(=O)C1=C(N)OC2=C(C(=O)CCC2)C1c1ccco1 (stereo not given) | -1.3 | 2 | -5.8 | 3 | -1.9 | 20% | -1
O=c1c(-c2ccccc2)c(O)c2cccc3c2n1CCC3 | -0.6 | -12 | 20* | -4 | 0.8 | -4% | 5
O=C(Nc1ccccn1)c1ccc2c(c1)S(=O)(=O)c1ccccc1C2=O | 4.8 | -15 | -5.9 | -17 | 0.9 | -3% | -12
